Beta apoptosis – blocks beta cell apoptosis; INS-1E cytokine-induced death, ATP luminescence, 48 h; percent of positive-control rescue, neutral wells zero; protection from apoptosis, % (no concentration beside the values); hit rate 0.8% among 300,000; AID 435005;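 active = all replicates at 75% or more, or half of them and the mean; inconclusive = half reach 75% but not the mean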;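 note: 0% = cytokine-treated negative control wells and 100% = positive control rescue; higher means more ATP so stronger rescue from cytokine killing; wells of about 40 µL received 100 nL stock; the first replicate is given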
AF4-AF9 inh – inhibitors of human MLL-AF4/AF9 interaction; P42568; AlphaScreen, biotin-AF4 peptide binding to FLAG-AF9; inhibition, % at 10 µM; hit rate 0.47% among 350,000; AID 651704;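 active = every replicate reaching a set inhibition limit, whatever the replicate mean, cut at about 25% in these data; inconclusive = mean inhibition reaches that limit but some replicates miss it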;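 note: 0% = plate neutral control median and 100% = total signal loss; the record names both 10 and 1 µM as test concentration; the first replicate is given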
A1 inh – inhibitors of the anti-apoptotic protein A1, read as caspase activation; MEF A1-2A-BIM cells, Caspase-Glo 3/7 luminescence, 3 h; percent of clofoctol response, vehicle zero; caspase activation, % (concentration not given with the values); hit rate 0.066% among 330,000;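 active = over half of replicate activation scores above 10%, or exactly half above 10 with the replicate mean above 10; inconclusive = replicate mean below 10 yet half the replicates above 10; inactive = over half of replicates below 10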;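 note: wells of about 30 µL received 50 nL stock; many hits fall short of the cut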
Calb FLC – affects C. albicans growth with fluconazole; growth inhibition, % (test concentration not listed); C. albicans CaCi-2 (fluconazole-resistant clinical isolate) + fluconazole, Alamar Blue growth, 48 h; hit rate 0.57% among 300,000;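 active = most replicates above 75%; inconclusive = exactly half above 75%; inactive = most below 75%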;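 note: all wells also contain fluconazole at 8 µg/ml as a sub-toxic cotreatment; 0% = median of DMSO wells and 100% = median of geldanamycin control wells; wells of about 8 µL received 7.5 nL stock; the first replicate is given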
RanGTP-Impb inh – inhibitors of RanGTP-importin-beta interaction, primary screen, biochemical, FRET, CFP-Ran, YFP-importin-beta, homogeneous; cell-free CFP-Ran/YFP-importin-beta FRET ratio; inhibition, % (test concentration not listed); hit rate 1.1% among 300,000;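 active = most replicates above 15%; inconclusive = exactly half above 15%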;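 note: 0% = DMSO wells and 100% = Ran loaded with GDP instead of GTP; wells of about 40 µL received 100 nL stock; the first replicate is given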
LANA-H2A inh – blocks KSHV LANA binding to histone H2A/H2B; cell-free LANA-H2A/H2B peptide, fluorescence polarization; inhibition, % (no concentration beside the values); hit rate 0.6% among 320,000; AID 2629; in the data active = inhibition mostly above about 10%, no sharp cut-off; inactive = mostly below about 6.7%;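 note: stock transfer was 7.5 nL into about 10 µL; 0% = median of vehicle wells and 100% = median of positive control wells; one replicate is shown; the record names a cut of 25% in any replicate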
Target sequence (Q9QR71 whole entry, looked up): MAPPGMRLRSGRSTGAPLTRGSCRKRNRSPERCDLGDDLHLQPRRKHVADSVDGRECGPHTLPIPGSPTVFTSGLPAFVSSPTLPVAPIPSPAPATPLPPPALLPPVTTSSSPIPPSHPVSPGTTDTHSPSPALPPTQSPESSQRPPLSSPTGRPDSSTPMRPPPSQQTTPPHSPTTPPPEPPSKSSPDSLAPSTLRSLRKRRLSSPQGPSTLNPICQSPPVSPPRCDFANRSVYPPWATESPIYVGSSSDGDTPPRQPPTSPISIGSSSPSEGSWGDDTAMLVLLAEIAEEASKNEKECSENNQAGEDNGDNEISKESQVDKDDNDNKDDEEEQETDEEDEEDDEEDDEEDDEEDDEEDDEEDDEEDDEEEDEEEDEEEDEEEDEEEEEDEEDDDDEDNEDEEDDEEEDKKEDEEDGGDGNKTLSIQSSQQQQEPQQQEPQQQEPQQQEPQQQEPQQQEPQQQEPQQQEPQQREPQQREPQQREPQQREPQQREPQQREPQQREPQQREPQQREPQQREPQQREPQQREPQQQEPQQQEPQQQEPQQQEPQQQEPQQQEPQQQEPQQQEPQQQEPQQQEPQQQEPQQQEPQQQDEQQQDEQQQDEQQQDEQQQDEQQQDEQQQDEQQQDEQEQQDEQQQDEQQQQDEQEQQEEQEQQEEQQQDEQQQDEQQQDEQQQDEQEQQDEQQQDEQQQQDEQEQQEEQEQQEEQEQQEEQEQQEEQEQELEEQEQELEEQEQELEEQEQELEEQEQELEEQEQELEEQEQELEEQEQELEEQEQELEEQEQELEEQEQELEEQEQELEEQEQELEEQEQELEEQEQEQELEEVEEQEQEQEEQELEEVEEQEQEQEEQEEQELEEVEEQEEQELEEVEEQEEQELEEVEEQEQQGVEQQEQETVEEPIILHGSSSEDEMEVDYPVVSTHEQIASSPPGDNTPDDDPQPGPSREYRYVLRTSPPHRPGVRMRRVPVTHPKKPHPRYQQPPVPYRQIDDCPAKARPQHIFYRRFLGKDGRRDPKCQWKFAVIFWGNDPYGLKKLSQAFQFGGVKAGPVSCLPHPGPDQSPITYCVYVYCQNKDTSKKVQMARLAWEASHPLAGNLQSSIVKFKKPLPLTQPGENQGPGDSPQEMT
T cruzi repl – blocks replication of Trypanosoma cruzi | T. cruzi beta-gal in NIH3T3, luminescence, 90 h | inhibition, % (no concentration beside the values) | hit rate 1.4% among 300,000;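 active = mean inhibition across valid replicates above about 55%, limit read from the data; inconclusive = mean below that limit but half or more replicates reach it; inactive = mean below it, under half of replicates reach it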;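 note: signal also drops with host cell toxicity which is not excluded here; 0% = plate median of DMSO wells and 100% = zero luminescence signal; higher percent means less beta-gal luminescence so fewer parasites; stock transfer was 50 nL into about 50 µL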
Vif A3G – inhibitors of Vif binding to APOBEC3G peptide, primary screen, biochemical, TR-FRET, GST-Vif 1-94, biotin-A3G peptide, dose response retest (AID 1117319). TR-FRET GST-Vif / biotin-A3G peptide binding; higher % means a stronger effect; test concentration not given here; strong numbers were not always called active. inhibition, %; hits with a dose series show IC50 in µM. hit rate 0.57% among 260,000;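 active = above the screen mean plus three standard deviations and confirmed in dose response; inconclusive = results disagree or hit not tested in dose response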;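 note: Vif residues 1-94 fused to GST binding biotinylated APOBEC3G peptide 110-148; 0% = full assay without inhibitor and 100% = GST in place of GST-Vif; retest series ran down from 100 µM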
Numbers without * were called inactive; ? = inconclusive; nt = not tested or not shown. Random draw from the library; any-hit rate near 4.3%.

SMILES	Beta apoptosis	AF4-AF9 inh	A1 inh	Calb FLC	RanGTP-Impb inh	LANA-H2A inh	T cruzi repl	Vif A3G
Cc1c(Cl)cccc1NC(=O)CCC(=O)NNC(=O)c1ccccc1	1	nt	-0.3	3	1.2	2.0	-7	nt
Cc1cccc(N2C(=O)CS/C2=N\NC(=O)c2ccc(Br)cc2)c1C	nt	nt	0.6	1	?	-3.2	4	nt
CCN1C(=O)/C(=C/c2cccs2)SC1=Nc1ccc(OC)cc1	4	nt	-0.1	-10	-1.7	1.1	13	25%
O=S(=O)(NCC1CCCO1)c1cnc(Cl)c(Br)c1 (stereo not drawn)	-5	-1.7	0.4	14	?	4.6	-4	nt
CCN(CC)C(=O)C(=O)Nc1ccc(OC)c(Cl)c1	-7	-0.1	0.1	4	0.2	1.2	-21	-1%
O=C(NCc1ccccc1Cl)C1CCC(CNc2c(N3CCCCC3)c(=O)c2=O)CC1 (stereo not drawn)	3	-0.3	1.1	-5	-1.3	-0.4	-13	6%
Cc1ccc(N2C(=O)NC(NC(=O)C3CC3)(C(F)(F)F)C2=O)cc1 (stereo not drawn)	-6	-8.6	0.8	10	-0.1	-0.1	4	-4%
CC(OC(=O)CC1CCCC1)C(=O)Nc1ccc(Cl)cn1 (stereo not drawn)	2	0.3	?	-11	1.5	3.6	-6	39%
Cc1csc(NC(=O)C2CCN(S(=O)(=O)c3cccs3)CC2)n1	-4	1.0	0.4	-10	?	6.6	11	nt
CN(C(=O)COC(=O)c1c2c(nc3ccccc13)/C(=C/c1cccc([N+](=O)[O-])c1)CCC2)C1CCS(=O)(=O)C1 (stereo not drawn)	20	3.8	-0.2	26	1.5	-4.6	41	-10%
CS(=O)(=O)c1ccc(Cl)c(NC(=O)COC(=O)CNC(=O)c2cccs2)c1	-5	2.2	0.1	nt	-1.3	2.2	15	nt
COc1ccc(C(=O)Nc2cc(C)on2)cc1S(=O)(=O)N1CC(c2ccccc2)CC1=O (stereo not drawn)	-8	-3.0	-0.6	?	4.8	-0.2	2	4%
CCS(=O)(=O)N1CCN(C(=O)c2ccccc2[N+](=O)[O-])CC1	nt	0.1	2.5	9	9.3	0.0	-13	17%
Cc1ccc(S(=O)(=O)n2cnc3ccccc32)c(C)c1	-9	nt	0.6	-3	2.5	-5.8	-11	69%
CCOc1ccc2nc(NC(=O)/C=C/c3ccc4c(c3)OCO4)sc2c1	8	-18	-0.3	1	4.0	-1.2	-19	24%
COc1ccc(N/C=C(\C#N)c2ccc(OCCCF)cc2)cc1	-3	nt	-0.7	0	?	-11	4	1%
COc1ccc(C2CC(c3ccc(Cl)c(Cl)c3)Nc3nc(N)nn32)cc1 (stereo not drawn)	2	2.0	-0.4	3	0.4	-1.8	27	4%
CCc1nc(SCC(=O)Nc2cccc(C(F)(F)F)c2)c2c(=O)n(C)c(=O)n(C)c2n1	21	0.3	-0.3	-1	1.6	2.3	-1	-1%
CCOC(=O)N(Cc1ccccc1)Cc1ccc(C(=O)N[C@@H](Cc2ccccc2)C(=O)O)cc1	-5	-1.9	0.5	-4	3.4	-1.7	-26	nt
CSc1ncccc1C(=O)N1CCN(C(=O)c2ccccc2)CC1	-1	-0.4	0.5	0	-2.8	5.6	-9	6%
O=[N+]([O-])c1cccc2c(N3CCOCC3)ccnc12	-23	2.1	0.6	8	3.5	3.4	8	9%
CC(C)CCN(C(=O)Nc1ccccc1)C(C)c1cccs1 (stereo not drawn)	1	nt	-0.4	-9	nt	10	-9	15%
CCOC(=O)c1cnc(-n2nc(C)cc2C)nc1NNc1cc(-c2ccccc2)nc(C)n1	nt	nt	-0.2	-19	2.5	-4.8	49	5%
COc1ccc(C(=O)NCCCCCC(=O)N/N=C/c2ccco2)cc1OC	-12	nt	0.7	19	3.9	2.8	-12	0%
COc1ccc(S(=O)(=O)N2CCN(C(=O)C3COc4ccccc4O3)CC2)cc1 (stereo not drawn)	-3	0.8	0.5	nt	nt	-4.4	nt	?

In another format: entries from further up.
Structure | Beta apoptosis | AF4-AF9 inh | A1 inh | Calb FLC | RanGTP-Impb inh | LANA-H2A inh | T cruzi repl | Vif A3G
CN(C(=O)COC(=O)c1c2c(nc3ccccc13)/C(=C/c1cccc([N+](=O)[O-])c1)CCC2)C1CCS(=O)(=O)C1 (stereo not drawn) | 20 | 3.8 | -0.2 | 26 | 1.5 | -4.6 | 41 | -10%
CS(=O)(=O)c1ccc(Cl)c(NC(=O)COC(=O)CNC(=O)c2cccs2)c1 | -5 | 2.2 | 0.1 | nt | -1.3 | 2.2 | 15 | nt
COc1ccc(C(=O)Nc2cc(C)on2)cc1S(=O)(=O)N1CC(c2ccccc2)CC1=O (stereo not drawn) | -8 | -3.0 | -0.6 | ? | 4.8 | -0.2 | 2 | 4%
CCS(=O)(=O)N1CCN(C(=O)c2ccccc2[N+](=O)[O-])CC1 | nt | 0.1 | 2.5 | 9 | 9.3 | 0.0 | -13 | 17%
Cc1ccc(S(=O)(=O)n2cnc3ccccc32)c(C)c1 | -9 | nt | 0.6 | -3 | 2.5 | -5.8 | -11 | 69%
CCOc1ccc2nc(NC(=O)/C=C/c3ccc4c(c3)OCO4)sc2c1 | 8 | -18 | -0.3 | 1 | 4.0 | -1.2 | -19 | 24%
COc1ccc(N/C=C(\C#N)c2ccc(OCCCF)cc2)cc1 | -3 | nt | -0.7 | 0 | ? | -11 | 4 | 1%
COc1ccc(C2CC(c3ccc(Cl)c(Cl)c3)Nc3nc(N)nn32)cc1 (stereo not drawn) | 2 | 2.0 | -0.4 | 3 | 0.4 | -1.8 | 27 | 4%
CCc1nc(SCC(=O)Nc2cccc(C(F)(F)F)c2)c2c(=O)n(C)c(=O)n(C)c2n1 | 21 | 0.3 | -0.3 | -1 | 1.6 | 2.3 | -1 | -1%
CCOC(=O)N(Cc1ccccc1)Cc1ccc(C(=O)N[C@@H](Cc2ccccc2)C(=O)O)cc1 | -5 | -1.9 | 0.5 | -4 | 3.4 | -1.7 | -26 | nt

Further results:
SMILES	Beta apoptosis	AF4-AF9 inh	A1 inh	Calb FLC	RanGTP-Impb inh	LANA-H2A inh	T cruzi repl	Vif A3G
NC(=O)CN(c1ccc(Oc2ccccc2)cc1)S(=O)(=O)c1ccccc1	nt	0.0	1.5	-3	6.6	-6.7	-5	nt
O=C1C2C3CC(C2C(=O)N1c1cccc(Cl)c1)[C@H](O)C3O (stereo partly drawn)	3	-1.2	-0.2	-8	-0.4	-1.8	-11	-2%
CC(Sc1ncnc2sccc12)C(=O)Nc1ccc(S(N)(=O)=O)cc1 (stereo not drawn)	-3	-4.3	-1.6	nt	nt	2.0	nt	-9%
CCCC(=O)OCC(=O)Nc1cc(Cl)ccc1[N+](=O)[O-]	-5	3.7	0.8	-4	2.5	4.0	-8	2%
COc1ccc(C(=O)NC2CC2)cc1OC1CCN(Cc2ccc(Cl)cc2)CC1	nt	nt	-2.1	-31	0.4	3.3	24	3%
O=C(CSc1nnc(-c2cccnc2)o1)Nc1ccc(Br)cc1	2	-0.7	-0.1	-4	3.6	-14	-13	nt
COc1ccc(NC(=O)CN2C(=O)c3ccccc3Sc3ccc(C(=O)N4CCOCC4)cc32)c(OC)c1	-5	3.3	0.1	24	-1.4	-0.3	8	-1%
CN(C)C(=O)c1cc(Br)ccc1Cl	-1	nt	0.4	2	-0.6	-0.1	-8	1%
COc1ccc(CN(CC(=O)NCc2ccccc2)C(=O)CCC(=O)Nc2cc(C)ccn2)cc1	-8	-1.6	0.0	1	-1.1	1.3	10	nt
O=C(c1cccs1)N1CCc2c([nH]c3ccccc23)C1c1ccccn1 (stereo not drawn)	-7	6.0	0.0	-1	?	7.7	8	nt
CC(C)n1cc(CNC(=O)C2CCC(=O)N(Cc3ccccc3F)C2)cn1 (stereo not drawn)	-4	-1.8	-1.2	-2	3.4	-0.7	-18	0%
NC(=O)C1CCN(c2ncc(C(F)(F)F)cc2Cl)CC1	1	-2.6	-0.6	12	-3.1	-3.5	-16	-2%
O=C1SCCc2c1n(Cc1ccccc1)c1ccccc21	-16	nt	0.4	-2	-2.3	6.4	7	-24%
C=CCn1c(O)c(C=Nc2ccc(Cc3ccncc3)cc2)c(=O)[nH]c1=S	-3	nt	0.9	-1	3.3	-4.0	-2	-31%
Cc1nnsc1C(=O)N/N=C/c1ccccc1Cl	0	-7.9	-3.1	-6	0.5	-1.6	-3	-11%
Cc1cc(C)c(NC(=O)CSc2nc(=O)n3cc(C)ccc3n2)c(C)c1	nt	-0.7	0.7	7	1.2	-2.9	5	0%
CCOC(=O)C1=C(C)NC(C)=C(C(=O)OCC)C1C(=O)OCC(=O)NC1CCCCC1	2	3.3	2.6	nt	nt	-1.1	nt	-6%
NS(=O)(=O)c1cccc(NC(=O)COC(=O)c2cc([N+](=O)[O-])ccc2N2CCCC2)c1	4	4.4	-0.4	nt	nt	4.9	nt	-10%
Cc1ccc(NC(=O)/C=C/c2ccco2)cc1S(=O)(=O)N1CCCCCC1	1	-24	0.1	-4	-2.9	-0.5	46	nt
O=C(CSc1nnc2n1CCCCC2)Nc1ccc(N2CCOCC2)cc1	-3	-2.0	-0.9	2	0.2	3.8	-7	3%
CCCOc1ccc(C2=CSC3=NCCN23)cc1	1	5.0	0.4	-63	-3.3	3.3	-2	nt
O=C(COC(=O)c1cc(=O)[nH]c2ccccc12)NCc1ccccc1	7	-2.3	0.9	nt	nt	-1.1	nt	nt
Cc1ccn(-c2cccc(-n3ccc(C)n3)n2)n1	0	nt	0.1	-15	-5.7	-3.3	-1	0%
N#C/C(=C\c1ccc(O)cc1)C(=O)NCc1ccccc1	-7	-2.1	-2.5	-5	3.8	-5.9	-2	3%
Cc1cccc(NC(=O)c2ccc(COc3ccc(Cl)cc3Cl)o2)n1	-7	nt	0.1	-11	7.3	3.8	14	6%

Additional structures follow.
SMILES	Beta apoptosis	AF4-AF9 inh	A1 inh	Calb FLC	RanGTP-Impb inh	LANA-H2A inh	T cruzi repl	Vif A3G
CCn1ncc(Br)c1C(=O)Nc1ccccc1OC	1	-3.4	0.1	-6	0.6	3.1	-8	-1%
Cc1ccc(NC(=O)N2CCC(NC(=O)c3ccccc3C)CC2)cc1	3	nt	0.5	4	-5.1	2.5	-9	-1%
Cc1cccc(N2CCN(C(=O)c3cc(S(=O)(=O)N(C)C)ccc3N3CCCC3)CC2)c1C	-4	5.0	-0.2	10	8.3	3.9	30	nt
Cc1ccc(C(=O)N2CCN(S(=O)(=O)c3ccccc3)CC2)cc1	-2	-0.2	1.7	-4	?	2.4	-2	nt
CC(C)(C)N1CC(C(=O)Nc2ccc(C#N)cc2)CC1=O (stereo not drawn)	-9	-2.6	0.1	-1	-1.7	-5.7	-6	nt
Cc1nnc(N2CCN(Cc3ccccc3)CC2)[nH]c1=O	-7	nt	-0.3	-5	4.6	1.7	14	3%
CC(OC(=O)CCOc1ccccc1)C(=O)NC1CC1 (stereo not drawn)	-2	-0.7	-0.7	-2	1.8	-0.5	-8	-2%
